# Sa RN4220 lethal = kills Staphylococcus aureus RN4220; AID 1259311; 0.33% of 330,000 active; S. aureus RN4220 growth, OD600, 16 h; inhibition, % (no concentration beside the values);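 active = z-score of -3 or lower and OD600 up to 0.18 on both plates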;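 note: plate controls were untreated cells for no effect and reference antibiotic for full effect; stock transfer was 100 nL into about 80 µL; one replicate is shown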
# PrP UTR inh = suppresses PrP 5' UTR mRNA reporter expression. 0.35% of 340,000 active. inhibition, % (no concentration beside the values). cell-based PrP 5' UTR mRNA reporter, plate reader;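 active = every replicate at 50% or more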;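 note: 0 = median of the neutral control wells; tested in H4 reporter cells; numbers are from one replicate; inactives centre near -14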
# ugtP null kill = kills S. aureus RN4220 lacking UgtP; S. aureus RN4220 ugtP deletion, OD600 growth, 16 h; some inactives read as strong as hits; growth inhibition, % (concentration not given with the values); 0.54% of 330,000 active; AID 1259309;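 active = z-score under -3 and OD600 up to 0.15 on both plates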;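 note: plate controls were untreated wells for no effect and antibiotic for full effect; wells of about 80 µL received 100 nL stock; the first replicate is given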
# BJeLR viability = kills HRASV12-expressing BJeLR cells; BJeLR (HRASV12) viability, CellTiter-Glo ATP luminescence, 48 h; reference of the scale not given here; 0.17% of 300,000 active; inhibition, % (test concentration not listed);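 active = replicate mean above 50%; inconclusive = above 50% but judged a plate artefact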;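 note: 50 nL library stock added to about 25 µL; numbers are from one replicate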
# Bead autofluor = counter-screen for toxin protease inhibitors: compound fluorescence; compound autofluorescence counterscreen, microsphere flow cytometry; active compounds read high; fluorescence intensity (test concentration not listed); 3.1% of 360,000 active;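 active = at least 3 SD above the mean of all compounds, about 16000 in these data; inconclusive = too few beads counted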;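 note: 100 nL of 1 mM stock went into each well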
# Mtb hypoxia inh = inhibitors of hypoxia-regulated fluorescent reporter in Mycobacterium tuberculosis. M. tuberculosis hypoxia-regulated fluorescent reporter, fluorescence. fluorescence inhibition, % (concentration not given with the values). 0.1% of 300,000 active;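 active = 35 to 45% if threefold the growth effect, above 45% if 1.5-fold the growth effect; inactive = the rest, general growth blockers included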;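 note: wells of about 50 µL received 100 nL stock; 0% = vehicle wells and 100% = reference inhibitor wells; whole bacteria with a GFP reporter of the hypoxia response; strong numbers were not always called active; many hits fall short of the cut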
# Mtb hypoxia inh growth = further read-out of Mtb hypoxia inh, marked with its call; growth inhibition, %; measured here: M. tuberculosis growth (absorbance);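 0% = vehicle and 100% = reference antibiotic; read after six days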
# * marks the source's active call; other numbers are inactive results; ? = inconclusive; / = not tested or not shown. Outcome played no part in choosing rows; 3.9% or so of the library scored in one or more.
SMILES,Sa RN4220 lethal,PrP UTR inh,ugtP null kill,BJeLR viability,Bead autofluor,Mtb hypoxia inh,Mtb hypoxia inh growth
O=C(NC(Nc1nc2ccccc2s1)(C(F)(F)F)C(F)(F)F)c1ccccc1,9.6,-0.4,4.6,-13.9,6804,-3.1,-2.9
COc1ccccc1NS(=O)(=O)c1cc(NC(=O)CCNC(C)=O)ccc1C,5.6,-7.2,2.9,-6.0,3798,7.9,6.2
Cc1onc(-c2ccccc2)c1CNS(=O)(=O)c1cccc(Br)c1,8.0,-13.2,-7.2,-1.0,3891,13.5,-0.5
Cc1cc(Nc2nc3ccccc3[nH]c2=O)n(-c2ccccc2)n1,3.4,-0.7,-6.6,/,4636,/,/
O=C(Nc1ccccc1)C12CC3CC(C1)CC(n1cnc([N+](=O)[O-])n1)(C3)C2,-4.3,7.7,21.0,4.4,3350,/,/
CC(C)C(=O)c1cn(CC(=O)N2CCCc3ccccc32)c2ccccc12,4.5,-24.9,1.8,-10.0,23272*,6.5,7.8
NC(=O)c1ccsc1NC(=O)COC(=O)COc1ccccc1F,-2.6,-10.4,0.1,-5.2,2473,-2.0,-5.7
Cc1ccc(P(=O)(CSC(=N)N)c2ccc(C)cc2)cc1,6.7,-14.8,-11.6,-4.0,2371,13.1,0.3
CCOc1ncccc1-c1nc(-c2cccs2)no1,-1.4,/,-5.2,-5.1,3058,-6.6,-4.9
CCN(CC)c1ccc(C2C3CCCCC3(O)CCN2CC(=O)N2CCCCC2)cc1 (centres undefined),-3.7,-4.3,-11.2,0.5,3424,6.9,7.2
CCOC(=O)C1=C(O)/C(=C/c2ccc(OCC(=O)O)c(OCC)c2)SC1=Nc1ccc(OC)cc1,8.9,-3.0,5.1,5.9,2545,4.0,2.3
CCc1nnc(NC(=O)CSc2nnc(-c3cccnc3)n2C)s1,-0.1,-39.9,-6.9,-5.3,4143,-3.0,12.3
CC(=O)Nc1ccc(NC(=O)CN(C)S(=O)(=O)c2ccc3c(c2)CCC(=O)N3)cc1,3.1,-57.7,5.4,-4.7,5093,4.7,0.1
CCOc1ccccc1OCCCC(=O)N1CCN(S(=O)(=O)c2ccc(C)cc2)CC1,3.5,6.8,-3.7,1.0,3744,3.3,2.3
CCOc1ccccc1OCCCC(=O)OCC(=O)Nc1cccc(Cl)c1,1.4,-21.1,4.9,1.7,2371,12.9,11.5
O=C(O)c1ccccc1C(=O)Nc1nc(-c2ccccc2)cs1,3.1,-17.2,7.3,3.1,3686,6.8,9.0
O=C(NC1CCCC1)c1ccc(CS(=O)Cc2ccc(Cl)cc2)o1 (centres undefined),5.9,-20.9,-4.9,3.0,5526,12.8,8.5
CCN(CC)C(=O)CNC(=O)c1nn(-c2ccc(OC)c(Cl)c2)c(=O)c2ccccc12,8.0,-9.9,-1.8,-2.8,3447,13.1,13.7
CCN(CC)S(=O)(=O)c1ccc2oc(SCC(=O)NC3CC3)nc2c1,3.3,-24.0,5.4,-1.6,5588,8.6,8.4
CC(C)C(NC(=O)c1ccccc1NC(=O)c1ccco1)C(=O)NNC(=O)c1ccncc1 (centres undefined),2.4,-27.2,4.4,-0.9,4251,2.4,8.0
Nc1nc(N)c(C=Nc2ccc(Br)cc2)c(Nc2ccc(Br)cc2)n1,/,-18.0,/,11.8,4272,/,/
CCCn1c(NC(=O)CCS(=O)(=O)c2ccc(C)cc2)nc2ccccc21,3.6,-13.5,7.4,-4.0,8550,10.8,-6.0
COc1ccccc1CCC(=O)N(Cc1ccccc1)c1c(N)n(Cc2ccccc2)c(=O)[nH]c1=O,0.0,-2.2,3.2,-7.6,5944,4.4,2.0
CC(=Nc1ccccc1)c1sc2ccccc2c1O,9.7,-99.8,13.7,11.0,8076,7.2,0.6
CCS(=O)(=O)Nc1cccc(C2=NN(S(=O)(=O)CC)C(c3ccccc3)C2)c1 (centres undefined),13.0,-8.5,14.1,-0.4,7034,-7.0,-3.7
CCn1c(SCC(=O)Nc2nonc2C)nnc1-c1ccoc1C,8.3,-17.9,6.1,-0.2,?,/,/
CCN1CC2C3C(=O)N(C)C(=O)C3[C@](C)(C1=O)N2C(=O)c1ccc(F)cc1 (some centres undefined),2.9,/,3.6,/,/,9.6,10.9
Cc1nc2nc(C)c(NS(=O)(=O)c3ccc(C(C)(C)C)cc3)c(=O)n2[nH]1,2.5,-7.4,11.0,-7.0,4024,3.1,2.6
CCOc1cc(/C=N/NC(=O)C2CCCC2)ccc1OC(C)C,/,-80.9,/,-6.5,5658,/,/
CC(=O)Nc1cccc(NC(=O)CN2c3cccc4cccc(c34)S2(=O)=O)c1,3.4,-12.1,0.2,/,3773,-5.4,1.1
Cc1ccc(C(=O)NC(=S)Nc2ccc3[nH]c(=O)[nH]c3c2)cc1C,2.5,-12.3,-3.5,6.8,2071,/,/
C[C@@H](C(=O)Nc1ccc(OC(F)F)c(Cl)c1)N1C(=O)C2CC=CCC2C1=O (some centres undefined),0.6,-21.2,-2.7,/,3768,0.5,8.0
N#CCCN(C(=O)COC(=O)CNS(=O)(=O)c1ccc2ccccc2c1)c1ccccc1,4.5,-19.0,5.8,/,3936,5.2,9.1
Cc1nn(C2CCS(=O)(=O)C2)c2nc(C3CC3)cc(C(=O)Nc3cccc(C#N)c3)c12 (centres undefined),-0.3,-7.8,-4.4,/,5964,-6.9,8.3
O=C(O)c1ccc(C=NNC(=O)c2cc3c(ccc4ccccc43)o2)cc1,3.0,/,1.5,/,/,3.8,9.4
O=C(NN=Cc1ccc[nH]1)c1ccc2c(c1)OCO2,10.0,/,4.8,/,/,7.2,11.7
O=C(COC(=O)C1CCN(S(=O)(=O)c2ccc3c(c2)OCCO3)CC1)Nc1ccccc1OC(F)F,5.3,-12.8,-0.6,-0.6,2529,2.0,10.1
O=C(Cc1ccc(S(=O)(=O)N2CCOCC2)s1)NCCOc1ccccc1,1.7,-27.1,0.5,1.5,6822,8.7,2.9
CCCN1C(=O)SC(=Cc2ccc(N3CCOCC3)o2)C1=O,2.4,/,-2.7,/,/,13.7,11.9
COc1cc(/C=N/O)ccc1OCc1ccccc1Cl,/,52.4,/,-18.0,3000,/,/
Cc1ccc(CN(C)C(=O)c2ccccc2NC(=O)c2ccccc2)o1,5.4,0.1,4.3,/,3007,5.4,-4.9
CCC(=O)N1CCN(c2ccc(NC(=O)COc3cccc(C)c3C)cc2)CC1,0.7,-2.2,-3.0,-0.3,5089,6.6,6.1
O=C(COC(=O)CNS(=O)(=O)c1ccc2ccccc2c1)Nc1ccccc1Sc1ccccc1,10.5,-9.9,3.8,-5.0,3388,8.8,3.0
CC(=O)c1ccc(NC(=O)Nc2ccc3c(c2)N(C)C(=O)CS3)cc1,5.0,-12.8,8.8,-4.4,3511,2.8,13.9
CCc1nn2c(=O)c(S(=O)(=O)Nc3ccccc3)c(C)nc2s1,3.5,-15.4,7.9,6.6,3398,-0.3,5.6
Cc1ccc(OCC(=O)Nc2ccccc2C(=O)NC2CC2)cc1C,1.2,-13.8,3.4,-13.3,5923,3.4,3.9
CCOC(=O)c1c(NC(=O)c2ccccc2N(C)S(=O)(=O)c2ccccc2)sc2c1CCCC2,1.4,-22.5,24.4,2.0,2463,8.3,4.0
CSc1ccc(/C=C(\C(=O)O)c2ccc(S(=O)(=O)N3CCCC3)s2)cc1,3.5,-13.3,-0.8,/,2994,1.8,-1.7
CCOCCc1nn2c(=O)cc(CSCC(=O)Nc3ccc(OC)cc3)nc2s1,-1.2,-16.4,2.8,-3.7,5668,2.2,4.8
CCC(C)CCN1CCN=C1N(C)C (centres undefined),-1.4,-4.9,-2.4,/,3032,-0.6,8.6
O=C1CSC(=Nc2ccc(F)cc2)N1,3.2,-13.8,-0.8,-4.1,3304,0.4,0.8
O=C(CSc1ccc(Br)cc1)Nc1ccccc1Oc1ccccc1,6.4,5.0,10.7,-5.6,2369,10.0,7.9
CN1CCN(C(=O)C2=CC(C(C)(C)C)CC(OCCCCO)O2)CC1 (centres undefined),4.1,/,-4.4,/,/,5.8,10.3
Cc1ccc(NC(=O)COC(=O)C(NS(=O)(=O)c2ccc(Cl)cc2)C(C)O)c(Br)c1 (centres undefined),7.5,-1.4,5.9,-16.1,1916,5.5,3.4
COc1ccc(CCNC(=O)Cn2cnc3ccccc3c2=O)cc1OC,2.8,-12.0,1.0,4.3,2037,/,/
O=C(CS(=O)c1ccc(Br)cc1)N1CCOCC1 (centres undefined),1.0,-4.6,2.0,2.5,4111,11.9,-6.8
CC(C)C(NC(=O)c1ccccc1)c1nnc(SCC(=O)NC2CCCC2)n1C (centres undefined),3.2,-17.2,9.5,-4.0,3114,4.8,0.6
CC1=NC(Nc2nc(C)c3ccccc3n2)=NC(C)(C)C1,11.8,-13.0,-5.5,10.6,24864*,-5.8,2.5
Cc1ccc(NC(=S)NCCc2c[nH]c3ccccc23)cc1,2.6,-16.3,0.2,-5.4,3077,2.2,18.4
Cc1c(OCC(=O)NC2CC(C)(C)NC(C)(C)C2)ccc2c3c(c(=O)oc12)CCC3,0.5,-20.5,11.9,-6.1,/,4.9,-8.8

# Further compounds follow.
SMILES,Sa RN4220 lethal,PrP UTR inh,ugtP null kill,BJeLR viability,Bead autofluor,Mtb hypoxia inh,Mtb hypoxia inh growth
O=S(=O)(NC(=NCCc1ccc(Cl)cc1)c1ccccc1Cl)c1cccs1,4.0,-1.5,-1.6,4.3,3528,-4.9,-11.8
Nc1ccccc1SCc1c(Cl)cccc1Cl,6.6,-10.6,-4.3,2.2,6215,12.0,-6.0
COc1ccc(C2C=CCN(C(=O)CC(C)(C)C)CC(=O)N2Cc2ccc(F)cc2)cc1 (centres undefined),8.2,/,-4.9,/,/,11.0,4.9
O=[N+]([O-])c1ccc(N2CCN(CCO)CC2)cc1Sc1nc2ccccc2[nH]1,-2.7,-14.0,4.1,-6.8,2774,-0.1,1.5
CC1(C)SC2c3ccccc3C(=O)N2[C@@H]1C(=O)NCCCN1CCOCC1 (some centres undefined),4.6,-20.5,-1.8,2.6,2996,/,/
Cn1cccc1C(=O)OCC(=O)NC(=O)c1ccc(Cl)cc1,4.3,-24.2,0.3,/,4098,12.6,10.7

# Structural class, those above containing two or more sulfur atoms (ten)
SMILES,Sa RN4220 lethal,PrP UTR inh,ugtP null kill,BJeLR viability,Bead autofluor,Mtb hypoxia inh,Mtb hypoxia inh growth
CCc1nnc(NC(=O)CSc2nnc(-c3cccnc3)n2C)s1,-0.1,-39.9,-6.9,-5.3,4143,-3.0,12.3
CCN(CC)S(=O)(=O)c1ccc2oc(SCC(=O)NC3CC3)nc2c1,3.3,-24.0,5.4,-1.6,5588,8.6,8.4
CCS(=O)(=O)Nc1cccc(C2=NN(S(=O)(=O)CC)C(c3ccccc3)C2)c1 (centres undefined),13.0,-8.5,14.1,-0.4,7034,-7.0,-3.7
O=C(Cc1ccc(S(=O)(=O)N2CCOCC2)s1)NCCOc1ccccc1,1.7,-27.1,0.5,1.5,6822,8.7,2.9
O=C(COC(=O)CNS(=O)(=O)c1ccc2ccccc2c1)Nc1ccccc1Sc1ccccc1,10.5,-9.9,3.8,-5.0,3388,8.8,3.0
CCc1nn2c(=O)c(S(=O)(=O)Nc3ccccc3)c(C)nc2s1,3.5,-15.4,7.9,6.6,3398,-0.3,5.6
CCOC(=O)c1c(NC(=O)c2ccccc2N(C)S(=O)(=O)c2ccccc2)sc2c1CCCC2,1.4,-22.5,24.4,2.0,2463,8.3,4.0
CSc1ccc(/C=C(\C(=O)O)c2ccc(S(=O)(=O)N3CCCC3)s2)cc1,3.5,-13.3,-0.8,/,2994,1.8,-1.7
CCOCCc1nn2c(=O)cc(CSCC(=O)Nc3ccc(OC)cc3)nc2s1,-1.2,-16.4,2.8,-3.7,5668,2.2,4.8
O=S(=O)(NC(=NCCc1ccc(Cl)cc1)c1ccccc1Cl)c1cccs1,4.0,-1.5,-1.6,4.3,3528,-4.9,-11.8

# Screens as filed in PubChem BioAssay.
